Source: PubChem BioAssay (several laboratories)
RGS16-Gao – modulates binding between human RGS16 and Galphao. O15492+P09471. bead-based flow cytometry RGS16-Galphao binding, fluorescence; actives lie on both sides. binding response (% of control), % at 10 µM. 220,000 tested, 0.38% active;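 active = below 25% or above 175%, edge rows of some plates excepted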;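 note: Galphao activated by GDP with aluminum fluoride before binding; 100% = wells without compound and 0% = beads without RGS; some results beyond the cut were filed as inactive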
INS promoter inh – TRM-6 insulin promoter activity inhibition. TRM-6 cells (human fetal islet line), insulin promoter-eGFP reporter, imaging; reporter expression induced with tamoxifen. inhibition, % at 2 µM. 130,000 tested, 0.9% active;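 active = inhibition above the mean plus 3 SD, with well images judged a real hit on visual review, cut at about 60% in these data, passing the limit was not always enough; inconclusive = inhibition over the cutoff but images rejected on review; inactive = inhibition not above the cutoff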
PKD1 kinase inh – blocks activity of human protein kinase D1 | Q15139 | PKD1 kinase fluorescence polarization assay | 200,000 tested, 0.056% active | inhibition, %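 (about 10 µM by stock and volumes)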;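 active = inhibition of 50% or more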;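 note: controls were vehicle for no effect and a reference inhibitor for full effect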
Target sequence (Q15139 whole entry, looked up): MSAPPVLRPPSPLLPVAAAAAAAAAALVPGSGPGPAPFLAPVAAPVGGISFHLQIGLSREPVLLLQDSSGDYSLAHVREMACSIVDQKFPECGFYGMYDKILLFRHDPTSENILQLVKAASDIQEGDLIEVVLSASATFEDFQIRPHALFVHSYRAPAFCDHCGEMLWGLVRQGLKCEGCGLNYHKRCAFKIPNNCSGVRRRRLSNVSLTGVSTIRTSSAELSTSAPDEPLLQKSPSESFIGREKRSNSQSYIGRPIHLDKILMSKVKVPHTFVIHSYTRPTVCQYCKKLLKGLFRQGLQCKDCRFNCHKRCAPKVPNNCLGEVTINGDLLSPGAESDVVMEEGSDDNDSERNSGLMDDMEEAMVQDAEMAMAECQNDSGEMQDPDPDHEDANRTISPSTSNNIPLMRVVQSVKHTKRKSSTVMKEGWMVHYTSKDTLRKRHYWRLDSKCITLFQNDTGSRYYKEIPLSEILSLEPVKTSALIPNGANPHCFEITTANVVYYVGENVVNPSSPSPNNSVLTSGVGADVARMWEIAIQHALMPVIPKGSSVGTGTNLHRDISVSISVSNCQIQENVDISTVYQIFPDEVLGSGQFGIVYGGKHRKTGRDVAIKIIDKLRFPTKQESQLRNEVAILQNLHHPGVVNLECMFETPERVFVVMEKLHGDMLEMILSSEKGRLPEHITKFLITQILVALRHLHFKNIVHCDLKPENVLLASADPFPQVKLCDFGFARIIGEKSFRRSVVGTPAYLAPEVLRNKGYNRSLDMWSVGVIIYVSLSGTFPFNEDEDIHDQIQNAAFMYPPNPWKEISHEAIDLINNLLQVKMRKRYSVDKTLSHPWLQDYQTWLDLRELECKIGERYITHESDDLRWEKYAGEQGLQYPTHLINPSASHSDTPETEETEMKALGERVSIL
GALR2 ag – activates the human galanin receptor 2. GALR2-expressing cells, agonist activation read-out. activation, %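 (tested at 5 µM)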. 140,000 tested, 0.48% active;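 active = above mean plus 3 SD of all compounds, about 5% in these data, not always enough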;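 note: 0% = vehicle buffer wells and 100% = reference agonist at full effect; tested in CHO reporter cells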
HSV replic up – HSV replication enhancement; HSV replication augmentation in cells, fold increase; maximum fold increase; 220,000 tested, 0.005% active; AID 1956;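 active = peak rise of 1.5-fold or more in the series; inconclusive = self-fluorescent or not available for retest; tested in PC3 cells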;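 note: first round at 10 µM; read as green reporter fluorescence; hits show the peak of a series up to 25 µM; 1 = signal of infected wells without compound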
INS promoter inh cell count – recorded beside INS promoter inh, whose call it bears; normalized cell count, %; measured here: cell count, toxicity; reference of the scale not given here;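 cells exposed to compound for 48 h; stained nuclei by imaging scaled within each plate; lower means fewer cells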
HSV replic up primary fold – recorded beside HSV replic up, whose call it bears; fold increase; compound at 10 µM; measured here: primary screen fold increase 10 uM; tested in PC3 cells;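 GFP signal in the first replicate; 1 = infected wells without compound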
* hit, by the source's call; i = inactive; ? = inconclusive; . = not tested or not shown.

SMILES | RGS16-Gao | INS promoter inh | INS promoter inh cell count | PKD1 kinase inh | GALR2 ag | HSV replic up | HSV replic up primary fold
N=c1c2c(ncn1CCCO)Oc1cc(O)ccc1C2c1ccccc1 (stereo not given) | 100 | . | . | . | . | i | 1.4
COc1ccc(CNc2ccc(C)cc2)cc1Br | 105 | -370 | 86 | -7 | -2.1 | i | 0.78
O=C(CCN1CCCC1)c1cccs1 | 96 | . | . | . | . | i | 1
CCOC(=O)C1CCCN(CC(=O)Nc2c(C(=O)OC)[nH]c3ccc(C)cc23)C1 (stereo not given) | 100 | 22 | 94 | -4 | -1.5 | i | 0.95
COC(=O)C(Cc1ccc(OC(=O)c2ccc(C(F)(F)F)cc2)cc1)N1Cc2ccccc2C1=O (stereo not given) | 101 | -49 | 81 | 3 | -3.0 | i | 0.81
COc1ccc(N(CC(=O)N2CC=C(c3ccccc3)CC2)S(=O)(=O)c2c(C)noc2C)cc1 | 105 | . | . | 3 | -1.6 | i | 0.93
CCCCOc1ccc(N2C(=O)CC(N(CCc3ccccc3)C(=O)/C=C/C(=O)O)C2=O)cc1 (stereo not given) | 106 | 21 | 84 | 0 | 0.2 | i | 0.97
O=C(CCCCCN1C(=O)c2ccccc2C1=O)NCc1ccco1 | 102 | . | . | -8 | -1.0 | i | 0.87
Cc1cc(Cl)cc2c1NC(=O)[C@]21[C@@H]2C(=O)N(Cc3ccccc3)C(=O)[C@@H]2[C@@H]2CCCN21 | 103 | -41 | 160 | -2 | -1.4 | i | 0.93
CN(Cc1cc(=O)n2ccsc2n1)C1CCCCC1 | 102 | . | . | -3 | . | i | 0.86
COc1cc(/C=C2/C(=O)NN(c3cccc(F)c3)C2=O)ccc1OC(=O)c1ccco1 | 94 | -35 | 60 | -5 | -2.1 | i | 0.84
COc1ccc(C(=O)c2c(C(F)(F)F)oc3c2C(=O)c2ccccc2C3=O)cc1 | 99 | 14 | 151 | -1 | -1.6 | i | 0.6
COc1cc(C2C3=C(CC(C)(C)CC3=O)Nc3c2c(=O)[nH]c(=O)n3Cc2ccccc2)ccc1O (stereo not given) | 96 | -217 | 77 | -1 | -1.6 | i | 1.1
CC(O)c1nc2ccccc2n1CCCCOc1ccccc1 (stereo not given) | 103 | . | . | -6 | . | i | 1
CCN1CCCC1CNC(=O)Cn1cccc1C(=O)c1ccccc1 (stereo not given) | 103 | 42 | 118 | -12 | -2.2 | i | 1

Next section; it opens with the 6 that closed the last part.
SMILES | RGS16-Gao | INS promoter inh | INS promoter inh cell count | PKD1 kinase inh | GALR2 ag | HSV replic up | HSV replic up primary fold
CN(Cc1cc(=O)n2ccsc2n1)C1CCCCC1 | 102 | . | . | -3 | . | i | 0.86
COc1cc(/C=C2/C(=O)NN(c3cccc(F)c3)C2=O)ccc1OC(=O)c1ccco1 | 94 | -35 | 60 | -5 | -2.1 | i | 0.84
COc1ccc(C(=O)c2c(C(F)(F)F)oc3c2C(=O)c2ccccc2C3=O)cc1 | 99 | 14 | 151 | -1 | -1.6 | i | 0.6
COc1cc(C2C3=C(CC(C)(C)CC3=O)Nc3c2c(=O)[nH]c(=O)n3Cc2ccccc2)ccc1O (stereo not given) | 96 | -217 | 77 | -1 | -1.6 | i | 1.1
CC(O)c1nc2ccccc2n1CCCCOc1ccccc1 (stereo not given) | 103 | . | . | -6 | . | i | 1
CCN1CCCC1CNC(=O)Cn1cccc1C(=O)c1ccccc1 (stereo not given) | 103 | 42 | 118 | -12 | -2.2 | i | 1
CC1=CC(C)C2(CO)COC(c3cccnc3)C1C2C (stereo not given) | 103 | 27 | 61 | 1 | -2.3 | i | 0.97
CCc1ccccc1NS(=O)(=O)c1ccc2[nH]cc(C(=O)NCC3CCCO3)c(=O)c2c1 (stereo not given) | 116 | . | . | -11 | -2.6 | . | .
O=[N+]([O-])c1ccc(S(=O)(=O)Nc2ccc(-c3csc(-c4ccccc4)n3)cc2)cc1 | 85 | -84 | 69 | -2 | -2.4 | i | 1
CCOC(=O)c1[nH]c2cc(OC)c(OC)cc2c1NC(=O)CN1CCN(c2ccc(OC)cc2)C(C)C1 (stereo not given) | 103 | 67* | 173* | -1 | -0.4 | i | 0.81
Cc1nc(Nc2cccc(O)c2)c2c3c(sc2n1)CCC3 | 105 | . | . | . | . | i | 0.86
Cc1ccc(NC(=O)/C=N/OCC(=O)NCc2ccccc2Cl)cc1 | 99 | . | . | . | . | i | 0.95
COc1ccc(N2CC(C(=O)NCCCN3CCOCC3)CC2=O)cc1 (stereo not given) | 101 | 0 | 83 | -5 | -1.7 | i | 0.89
CCCSc1nnc(CSc2ncccn2)n1C | 97 | 0 | 106 | -2 | . | i | 0.99
COc1ccc(Br)cc1CNC(=O)C1CCN(S(=O)(=O)N2CCC(C)CC2)CC1 | 110 | -22 | 98 | 14 | -1.3 | i | 0.79
O=C(Nc1cccc(-c2nnc(-c3ccco3)o2)c1)C(c1ccccc1)c1ccccc1 | 100 | -12 | 107 | -2 | -0.1 | ? | .
Cc1cccc(C)c1NC(=S)N(CCN1CCCCCC1)Cc1ccco1 | 100 | . | . | -2 | . | i | 1
CN(C)c1nc(=S)nc(NCc2ccccc2)[nH]1 | 101 | 31 | 57 | 1 | . | i | 0.97
CC(C)N1CCN(CC#Cc2ccccc2)CC1CCO (stereo not given) | 102 | 0 | 152 | 6 | . | i | 0.88
O=C(NCCN1CCOCC1)c1cc(-c2cccs2)on1 | 106 | 6 | 143 | -8 | -0.3 | i | 0.99
CCOC(=O)c1sc2nc(SCC#N)n(CC3CCCO3)c(=O)c2c1C (stereo not given) | 107 | -4 | 91 | -2 | -0.6 | i | 0.83
CC(=O)NCCCOc1ccc([N+](=O)[O-])cc1Cl | 106 | . | . | . | . | i | 0.95
CCN(CC)c1ccc(/C=N/N2CCN(Cc3ccc(C)cc3)CC2)c(O)c1 | 104 | . | . | -3 | -2.5 | i | 0.93
COc1cc(-c2nc(-c3ccccc3)c(-c3cc([N+](=O)[O-])ccc3C)[nH]2)cc(OC)c1OC | 96 | -6 | 73 | -1 | -0.5 | i | 1
COC(=O)CSc1ccsc1C(=O)O | 101 | 31 | 111 | -8 | . | . | .
COC(=O)c1cccc(NC(=O)Nc2ccccc2OC)c1 | 98 | . | . | -10 | . | i | 1
COc1ccc(OC)c(NC(=O)C(=O)NCCC2=CCCCC2)c1 | 76 | 43 | 152 | 12 | -0.8 | i | 1.1
CCOC(=O)c1cnc2c(cnn2C)c1NCCCn1ccnc1 | 100 | . | . | -2 | . | i | 0.98
CC(C)n1cnc2c(N(C)c3cccc(Cl)c3)nc(N(CCO)CCO)nc21 | 108 | . | . | . | . | i | 0.81
COc1cc2c(cc1NC(=O)/C=C/c1ccccc1)oc1ccccc12 | 103 | -6 | 140 | 9 | -1.9 | i | 0.84
CCc1cc2c(NC(C(=O)O)C(C)C)ncnc2s1 (stereo not given) | 101 | 5 | 93 | -5 | -2.5 | i | 0.99
COC(=O)CNC(c1ccccc1)c1cc(C)ccc1NC(=O)CNC(=O)OCc1ccccc1 (stereo not given) | 101 | -27 | 115 | 3 | -1.5 | i | 0.92
O=[N+]([O-])c1ccccc1S(=O)(=O)N1CCN(CC2CC3C=CC2C3)CC1 (stereo not given) | 117 | 15 | 56 | 10 | . | i | 0.95
CC(Sc1nnnn1-c1ccccc1)C(=O)Nc1ccccc1-c1ccccc1 (stereo not given) | 108 | . | . | -1 | -0.6 | i | 0.93
O=C(N/N=C/c1ccc(-c2cccc(C(F)(F)F)c2)o1)c1ccccc1O | 99 | -12 | 58 | -1 | -1.9 | i | 0.96
N#CCCn1cc(/C=N/NC(=O)c2ccncc2)c(-c2ccc(F)cc2)n1 | 145 | . | . | 12 | -0.2 | i | 1.2

Random excerpt: two records from the list
SMILES | RGS16-Gao | INS promoter inh | INS promoter inh cell count | PKD1 kinase inh | GALR2 ag | HSV replic up | HSV replic up primary fold
CCOC(=O)c1sc2nc(SCC#N)n(CC3CCCO3)c(=O)c2c1C (stereo not given) | 107 | -4 | 91 | -2 | -0.6 | i | 0.83
CCc1ccccc1NS(=O)(=O)c1ccc2[nH]cc(C(=O)NCC3CCCO3)c(=O)c2c1 (stereo not given) | 116 | . | . | -11 | -2.6 | . | .

Other results:
SMILES | RGS16-Gao | INS promoter inh | INS promoter inh cell count | PKD1 kinase inh | GALR2 ag | HSV replic up | HSV replic up primary fold
Cc1ccc(SCC(=O)Nc2ccc(N3CCN(C)CC3)c(F)c2)cc1 | 101 | -13 | 41 | -10 | 7.8* | . | .
S=c1[nH]ccn1-c1ccc(Cl)cc1 | 104 | . | . | 1 | . | i | 0.98
O=C(Nc1cc(Cl)ccn1)C1(c2ccccc2)CC1(Cl)Cl (stereo not given) | 102 | . | . | . | . | i | 1
O=C(O)c1ccc(NC(=S)NC(NC(=O)c2ccco2)C(Cl)(Cl)Cl)cc1 (stereo not given) | 98 | 10 | 115 | -8 | 0.1 | i | 0.7
O=C(NCc1cccnc1)c1ccc2c(c1)OCO2 | 103 | . | . | 12 | -1.6 | i | 0.95
O=C(CNC(=O)c1cccs1)NCC(=O)OCC(=O)c1ccc([N+](=O)[O-])cc1 | 86 | 12 | 57 | -8 | . | i | 0.81
CN(C)CCCNC(CC(=O)Nc1cccc([N+](=O)[O-])c1)C(=O)O (stereo not given) | 107 | -25 | 165 | -9 | -0.4 | i | 0.98
COc1ccc(NC(=O)c2ccc(-c3ccccc3C(F)(F)F)o2)cc1 | 102 | 5 | 112 | -9 | -0.5 | i | 0.9
CN(Cc1cn[nH]c1-c1ccc2c(c1)OCO2)C1CCOCC1 | 105 | . | . | -1 | . | i | 1
O=C(O)CC1(CC(=O)Nc2ccc3ccccc3n2)CCCCC1 | 104 | . | . | . | . | i | 0.89
CCOC(=O)CN1C(=O)C(Sc2n[nH]c(-c3ccc(O)cc3)n2)CCc2ccccc21 (stereo not given) | 100 | -21 | 53 | -2 | -2.1 | i | 1.1
O=C(O)C1Cc2c([nH]c3ccccc23)C(c2ccc3c(c2)OCO3)N1 (stereo not given) | 110 | -6 | 90 | -3 | -0.6 | i | 1.2
CCOC1OC(=O)C(Cl)=C1Nc1cc(C)ccc1C (stereo not given) | 82 | 50 | 67 | -12 | . | i | 1
COC(=O)c1ccccc1NC(=O)C(=O)NCC1CCCO1 (stereo not given) | 87 | . | . | -3 | -1.1 | i | 0.94
COc1ccc(Br)cc1CN(C)CC(=O)Nc1cccc(S(N)(=O)=O)c1 | 100 | -23 | 97 | 0 | . | i | 0.91

Looked up above:
For PKD1 kinase inh, CN(Cc1cc(=O)n2ccsc2n1)C1CCCCC1 has the entry -3
For INS promoter inh, O=C(CNC(=O)c1cccs1)NCC(=O)OCC(=O)c1ccc([N+](=O)[O-])cc1 has the entry 12

Carrying on:
SMILES | RGS16-Gao | INS promoter inh | INS promoter inh cell count | PKD1 kinase inh | GALR2 ag | HSV replic up | HSV replic up primary fold
O=C(N/N=C/c1ccc(F)cc1)c1cc(-c2ccco2)nc2ccccc12 | 77 | . | . | -4 | -3.2 | . | .
CN(C)c1cccc2c(S(=O)(=O)Nc3ccccn3)cccc12 | 104 | 13 | 117 | -6 | -0.5 | i | 0.98
Cc1ccc(S(=O)(=O)N2CCCCC2C(=O)NCc2ccco2)cc1 (stereo not given) | 102 | . | . | 5 | -4.1 | i | 0.85
COc1cccc(-n2nnc3c(=O)n(CC(=O)N4CCC(Cc5ccccc5)CC4)cnc32)c1 | 95 | -36 | 85 | -12 | -1.0 | i | 1.1
CCN(CCCNC(=O)C1CCCN(S(=O)(=O)CC)C1)c1cccc(C)c1 (stereo not given) | 97 | -94 | 132 | -11 | -1.3 | i | 0.92
CC(C)OC(=O)c1cccc(NC(=O)c2ccccc2)c1 | 101 | . | . | 2 | -1.3 | i | 0.81
COc1ccccc1-c1ccc(SCC(=O)N2CCOCC2)nn1 | 104 | -327 | 11 | 6 | . | i | 1.1
CCOC(=O)c1[nH]c(C)c(C(=O)OCC(=O)N(CC)C2CCS(=O)(=O)C2)c1C (stereo not given) | 102 | 6 | 175 | 0 | -2.9 | i | 0.92
CC(=O)CC1OC(=O)C(Br)=C1NCc1ccccc1 (stereo not given) | 93 | -94 | 25 | -4 | 0.5 | i | 0.56
